Bead autofluor: compound fluorescence in toxin protease inhibitor counterscreen | AID 624483 | 360,000 tested, 3.1% active | fluorescence intensity (test concentration not listed) | compound autofluorescence counterscreen, microsphere flow cytometry; active compounds read high;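 active means at least 3 SD above the mean of all compounds, about 16000 in these data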;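 further: 100 nL of 1 mM stock went into each well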
An asterisk follows results filed as active.

SMILES,Bead autofluor
Cc1cccc(C)c1-n1nnnc1C1(C)CCC(=O)N1Cc1ccco1 (stereo unspecified),5320
CC(C)N1CCC1(C)C(=O)Nc1nc2ccccc2[nH]1 (stereo unspecified),3926
COc1cc(C(C)=O)ccc1OCC(=O)NCc1ccccc1CN1CCCC1,4049
CCNC(=O)C1(C)CCCN(CCOc2ccc(OC)cc2)C1 (stereo unspecified),3053
Cc1ccc(CNC(=O)C2CCC(=O)N(Cc3cccc(F)c3)C2)s1 (stereo unspecified),3731
Cc1cc(C)n2c(Nc3c(C)cccc3C)c(-c3ccccn3)nc2n1,5148
Cn1c(NCCc2ccncc2)nc2cc(-c3ccsc3)sc2c1=O,3892
CC(C)C[C@H]1CN([C@@H](Cc2ccccc2)CN2CCC[C@@H]2CN2C(=O)C(=O)NC[C@@H]2Cc2ccccc2)C(=O)C(=O)N1CCc1ccccc1,5373
CCCS(=O)(=O)NC(=O)C1(C)CCCN(C(=O)c2cccc3ccccc23)C1 (stereo unspecified),3814
Cc1ccc(S(=O)(=O)NC(=O)C2(C)CCN2C(=O)Cc2ccc(Cl)cc2Cl)cc1 (stereo unspecified),2867
CN(C(=O)c1cc(-c2cccs2)nn1-c1ccccc1)C1CCS(=O)(=O)C1 (stereo unspecified),3518
O=C(OCc1ccccc1)N1CCC2CC1c1ccc(N3CCOCC3)cc12 (stereo unspecified),2797
CCCCNC(=O)C1(C)CCCCCN1Cc1cc2ccccc2o1 (stereo unspecified),3820
C[C@H](c1ccccc1)N1C[C@@H](COCc2ccccc2)Oc2cc(N3CC[C@H](O)C3)ccc2S1(=O)=O,5800
C[N+](C)(C)CCN1CCc2ccccc21,5776
O=C(O)c1ccccc1C(=O)OCC1CCC(=NO)CC1 (stereo unspecified),4120
CC(C)C1C(=O)N(Cc2cn(CC3CCCCC3)nn2)CCS(=O)(=O)N1Cc1ccc(-c2ccc(F)cc2)cc1 (stereo unspecified),3022
C[C@@H]1CN([C@@H](C)CO)C(=O)c2cc(Br)cnc2O[C@H]1CN(C)C(=O)Cc1ccccn1,3623
COc1cccc(-c2nnn(CC(=O)N(C3CCCCC3)C3CCS(=O)(=O)C3)n2)c1 (stereo unspecified),3616
Cc1c(C(=O)NCc2ccc(F)cc2)sc(=O)n1Cc1ccc(C(=O)c2ccccc2)cc1,5767
CCOC(=O)C1(C)CCN1C(=O)c1cccc(Cl)c1 (stereo unspecified),3918
Cc1ccc([C@H]2C[C@H](n3cc(C4CC4)nn3)[C@@H](O)CN2C(=O)c2cccs2)cc1,3730
COCCN(C(=O)COC(=O)c1ccc2c(c1)OCO2)c1c(N)n(Cc2ccccc2)c(=O)[nH]c1=O,3805
CCc1nc2ccc(C(=O)N(C)Cc3ccccc3)cn2c1N(C)CCCc1ccccc1,3052
CC1(C(=O)NS(=O)(=O)c2cccs2)CCN1C(=O)Cc1ccc(-c2ccccc2)cc1 (stereo unspecified),3396
CCN(CC)CCNc1cccc2sc3ccccc3c(=O)c12,2934
C[C@@H]1CCCCO[C@@H](CN(C)C(=O)c2ccccc2)[C@@H](C)CN([C@H](C)CO)C(=O)c2cc(N(C)C)ccc2O1,3383
CCOc1ccc(/C=N/NC(=O)c2ccc3nc[nH]c3c2)cc1OC,3595
COC(=O)c1ccc2nc(-c3cccc(Br)c3)c(Cc3ccccc3C(F)(F)F)n2c1,5963
COc1ccc(Cc2c(-c3ccccc3)nc3c(C)cc(Br)cn23)c(C)c1,6653

As entered above:
CCOc1ccc(/C=N/NC(=O)c2ccc3nc[nH]c3c2)cc1OC | Bead autofluor: 3595
CCOC(=O)C1(C)CCN1C(=O)c1cccc(Cl)c1 (stereo unspecified) | Bead autofluor: 3918
COc1ccc(Cc2c(-c3ccccc3)nc3c(C)cc(Br)cn23)c(C)c1 | Bead autofluor: 6653

Next entries:
SMILES,Bead autofluor
CCCS(=O)(=O)c1nc(S(=O)(=O)c2ccc(C)cc2)c(N2CCCCC2)s1,3779
C[C@@H]1CN([C@@H](C)CO)S(=O)(=O)c2ccc(-c3ccccc3)cc2O[C@@H]1CN(C)Cc1ccccc1C(=O)O,3653
Cc1ccc(Cn2cc(CN3CC(N4CCN(CCO)CC4)CS3(=O)=O)nn2)cc1 (stereo unspecified),6076
COc1ccc(CCNC(=O)c2ccc(CS(=O)(=O)Cc3ccc(C)cc3)o2)cc1OC,3711
COc1ccc(OC(=O)N(C)C[C@@H]2OCc3cnnn3CCCC(=O)N([C@H](C)CO)C[C@H]2C)cc1,3817
COCc1cn(-c2nc3ccccc3s2)nn1,6155
COC(=O)[C@@]1(Cc2ccc(F)cc2)[C@H]2c3cc(C(=O)N(C)C)n(Cc4ccc(S(C)(=O)=O)cc4)c3C[C@H]2CN1C(=O)c1ccccc1,6585
COC(=O)[C@]12CCCCC=C1N(Cc1ccc(Cl)cc1Cl)C(=O)[C@H](CC(=O)N1CCOCC1)C2,4243
O=C(NCc1ccc(F)cc1)c1cc(C2CCCN(C(=O)C3CCCCC3)C2)on1 (stereo unspecified),3469
CN1CCCC1(C)C(=O)NCc1ccc(F)cc1Cl (stereo unspecified),3812
CC(C)OC(=O)N(C)C[C@@H]1OCc2cnnn2CCCC(=O)N([C@@H](C)CO)C[C@H]1C,3442
Cc1cc(C)c2c(=O)n3c(nc2c1)C(Cc1ccccc1)NC(=O)c1cc2ccccc2cc1-3 (stereo unspecified),3733
CC12CCC3c4ccccc4CCC3(CO1)C2 (stereo unspecified),3908
CNc1ccc(-c2cccc(C(C)=O)c2)cn1,3903
COc1ccc(S(=O)(=O)N(C)C[C@H]2Oc3cc(Br)ccc3S(=O)(=O)N([C@H](C)CO)C[C@H]2C)cc1,3604
CCCS(=O)(=O)NC(=O)C1(C)CCN(C(=O)c2ccc(F)c(C)c2)C1 (stereo unspecified),2995
COc1ccc2c(c1)C13CCN4CC5=CCOC6CC(=O)N2C1C6C5CC43 (stereo unspecified),5619
CCc1nc2c(OCC3COc4ccccc4O3)cccn2c1N(C)C(=O)c1cccc(OC)c1 (stereo unspecified),3683
C=Cc1ccc(CC2(C)C(=O)Nc3ccc(-c4cccnc4)cc32)cc1 (stereo unspecified),3475
COCCNc1nc2cc(-c3ccc(F)cc3)sc2c(=O)n1C,3772

Some of the entries so far, field by field:
C=Cc1ccc(CC2(C)C(=O)Nc3ccc(-c4cccnc4)cc32)cc1 (stereo unspecified)
  Bead autofluor = 3475

CC12CCC3c4ccccc4CCC3(CO1)C2 (stereo unspecified)
  Bead autofluor = 3908

Cc1cc(C)c2c(=O)n3c(nc2c1)C(Cc1ccccc1)NC(=O)c1cc2ccccc2cc1-3 (stereo unspecified)
  Bead autofluor = 3733

CNc1ccc(-c2cccc(C(C)=O)c2)cn1
  Bead autofluor = 3903

Next section:
SMILES,Bead autofluor
Cc1cc(C(=O)N2CCC(C)(C(=O)NS(=O)(=O)C3CC3)C2)n(C(C)(C)C)n1 (stereo unspecified),2851
O=c1[nH][nH]c2c1[C@H](CCc1cccc(Cl)c1)O[C@H](CCc1ccccc1)C2,5842
Cc1ccc(C)c(C(=O)COC(=O)c2cc(S(=O)(=O)N3CCOCC3)ccc2F)c1,2825
CCOC(=O)[C@@H](NC(=O)/C=C/[C@H]1O[C@@H](n2ccc(=O)[nH]c2=O)[C@H](O)[C@@H]1O)C(C)C,6195
Cc1nccn1-c1ccc(NC(=O)[C@H]2O[C@@H](n3ccc(N)nc3=O)[C@H](O)[C@@H]2O)cc1,5236
NC(=O)c1ccc(Nc2nc(C(N)c3ccccc3Cl)cs2)cc1 (stereo unspecified),3828
CCCC(=O)N1CCCC1(C)C(=O)Nc1ccc(C)c(C)c1 (stereo unspecified),3494
CCCCc1c(-c2ccccc2OC)ncn1CCc1cccc(F)c1,4772
Cn1c(NCC2CCCCC2)nc2cc(-c3ccsc3)sc2c1=O,3350
CCc1nc2ccc(C(=O)N(C)Cc3ccco3)cn2c1N(CC)Cc1cccc(Br)c1,2923
C=Cc1ccc(CC2(C)C(=O)Nc3ccc(Cl)cc32)cc1 (stereo unspecified),2932
COc1ccc(Cl)cc1CNC[C@H]1O[C@@H](n2cnc3c(=O)[nH]c(N)nc32)[C@H](O)[C@@H]1O,5874
C[C@@H]1CN([C@@H](C)CO)C(=O)CCCn2nncc2CO[C@H]1CN(C)Cc1ccc(-c2ccccc2)cc1,3583
Cc1cc(Br)cn2c(Cc3cccc(F)c3)c(-c3cccc(Br)c3)nc12,5683
CCOC(=O)Cc1ccc(Nc2nc(NC)nc3ccsc23)cc1,3818
CCCCN(C=O)c1c(CC)nc2ccc(C(=O)NCCc3c[nH]c4ccccc34)cn12,4185
O=C1C(=Cc2ccccc2[N+](=O)[O-])Cc2ccccc21,3027
COc1ccc(NC(=O)c2cc(-c3cc(C)cc(F)c3)n[nH]2)cc1OC,3361
NC(=O)C1(N2CCCCC2)CCN(C(=O)c2cc(COc3c(F)cccc3F)on2)CC1,3687
CCCCCCN1C[C@@H](n2cc(C3CC3)nn2)[C@H](O)C[C@@H]1c1ccccc1,3718
CC1(C(=O)NCc2cccs2)CCN1C(=O)Cc1ccc(Cl)cc1Cl (stereo unspecified),3672
Cc1ccc2nc(-c3ccc(F)cc3)c(Cc3ccccc3C(F)(F)F)n2c1,6931
O=C(NCc1nnnn1-c1ccc(F)cc1)c1ccc(S(=O)(=O)N2CCOCC2)cc1,4073
COC(=O)[C@@]1(Sc2ccc(C)cc2)CC(=O)N(c2cccc(SC)c2)[C@@H]1c1ccccc1,4091
CCOC(=O)N(C)C[C@@H]1OCc2cnnn2CCCC(=O)N([C@H](C)CO)C[C@H]1C,3387
OCCCNc1ncnc2c1ncn2[C@H]1CN(Cc2cccs2)C[C@@H](CO)O1,2842
CC(C)(C)c1ccc(C(=O)NCCC(=O)NCc2ccc(F)cc2)cc1,3151
Cc1ccc(C(=O)C=CC=Cc2ccccc2)cc1,3054
COC(=O)C[C@@H]1C[C@H]2c3cc(NC(=O)CC4CC4)ccc3O[C@H]2[C@@H](CO)O1,3671
Cc1ccc(S(=O)(=O)N2C[C@@H](C)[C@]3(C2)[C@H](O)[C@H](OC(=O)NCc2ccccc2F)C[C@H]2C(=O)N(c4ccccc4)C(=O)[C@H]23)cc1,3824
C[C@@H]1CN([C@@H](C)CO)C(=O)c2cc(Br)cnc2O[C@H]1CN(C)C(=O)Nc1ccccc1,3301
C[C@H]1CN([C@@H](C)CO)S(=O)(=O)c2ccc(Br)cc2O[C@H]1CN(C)C(=O)c1cccnc1,4175
COC1=CC(=O)c2nc(Cl)ccc2C1=O,6398
O=S1(=O)CC(N2CCC(c3ccccc3)CC2)CN1C1CCCCC1 (stereo unspecified),6265
CCOC(=O)c1cc(OCC)c2c(ccc3cc(OC)ccc32)n1,3402
CC(C)C[C@H](NC(=O)CC[C@H]1O[C@@H](n2ccc(=O)[nH]c2=O)[C@H](O)[C@@H]1O)C(=O)O,5435
CN(C)c1ccccc1-c1cc(NC=O)c2ncc(-c3cccc(C(F)(F)F)c3)n2c1,3947
CN(C)CCNC(=O)c1cccc(-c2cnc3c(NC=O)cc(-c4ccccc4F)cn23)c1,3526
Cc1ccc(F)cc1C(=O)N1CCCCC1c1cc(C(=O)Nc2ccc(F)c(Cl)c2)no1 (stereo unspecified),3485
Clc1ccccc1NN(Cc1ccncc1)c1ccccc1Cl,3675

Brought forward from above: two entries, then new ones.
SMILES,Bead autofluor
Cc1ccc(F)cc1C(=O)N1CCCCC1c1cc(C(=O)Nc2ccc(F)c(Cl)c2)no1 (stereo unspecified),3485
Clc1ccccc1NN(Cc1ccncc1)c1ccccc1Cl,3675
C[C@H]1CN([C@@H](C)CO)C(=O)CCCn2nncc2CO[C@@H]1CN(C)Cc1ccccc1C(F)(F)F,3760
Cc1ccc(C2CC(c3ccccc3)=NN2c2ccc(S(N)(=O)=O)cc2)cc1 (stereo unspecified),3645
CC(=O)Nc1ccc(-c2ccnc3c2CC(C(=O)NCc2ccc(N4CCN(C)CC4)cc2)O3)cc1 (stereo unspecified),3918
CCOC(=O)C1(C)CCN1C(=O)c1ccc(N(C)C)cc1 (stereo unspecified),2963
O=C(Nc1cccc(Cl)c1Cl)c1ccco1,3847
CCC(=O)N1CCC1(C)C(=O)Nc1cccc(Oc2ccccc2)c1 (stereo unspecified),2846
CCCC(=O)N1CCCC(c2cc(C(=O)NCc3cccnc3)no2)C1 (stereo unspecified),3767
COC(=O)c1ccc2nc(-c3ccc(C#N)cc3)c(Cc3cccc(F)c3)n2c1,6439
Clc1ccc(-c2nc3ccc(Br)cn3c2Cc2ccsc2)cc1,7084
CC(=O)NC(c1ccc(F)c(F)c1)c1nc(-c2cccc(C(C)C)c2)cs1 (stereo unspecified),2954
CCCCCCN1C[C@H](O)[C@@H](n2cc(C3CC3)nn2)C[C@@H]1c1ccc(OC)cc1,4472
Cc1ccc(C(=O)N2CCCc3ccccc32)c(Cl)c1,3772
CCOC(=O)C1(C)CCCN1C(=O)c1snnc1C (stereo unspecified),3842
NC(CSC(c1ccccc1)(c1ccccc1)c1ccc2c(c1)OCO2)C(=O)O (stereo unspecified),3709
Cc1ccc(S(=O)(=O)N(C)C[C@H]2OCCCC[C@H](C)Oc3ccc(NC(=O)Nc4cccc5ccccc45)cc3C(=O)N([C@@H](C)CO)C[C@H]2C)cc1,3479
CC(CC(=O)Nc1ccc2c(c1)c(=O)n(C)n2Cc1cccc(C(F)(F)F)c1)C(F)(F)F (stereo unspecified),3871
CC1(C(=O)Nc2ccccc2)CCN1C(=O)Cc1ccc(-c2ccccc2)cc1 (stereo unspecified),3578
CCCc1ccc2ccc3ccccc3c2n1,6027
CCCC(=O)N1CCCC1(C)C(=O)NCc1ccc(SC)cc1 (stereo unspecified),3596
O=C(NCc1ccccc1)c1cc(C2CCCCN2C(=O)c2ccccc2)on1 (stereo unspecified),3688

Only part of the results is shown; count on the stated rates, not on these rows.
